GIV-Gai inh – inhibitors of GIV peptide binding to Galpha-i3, primary screen, biochemical, fluorescence polarization, FITC-GIV GBA peptide, rat Galphai3 | Guanine nucleotide-binding protein G(i) subunit alpha-3 (Rattus norvegicus), P08753 | 90 min; hits give low values; scaled: aluminum fluoride 0%, vehicle 100% | percent of control (FP), % (test concentration not listed) | actives 0.42% (n = 210,000);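 active = replicate mean at 85% of control or lower, very high polarization wells dropped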;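 note: wells of about 15 µL received 100 nL stock; the first replicate is given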
Target sequence (P08753 whole entry, looked up): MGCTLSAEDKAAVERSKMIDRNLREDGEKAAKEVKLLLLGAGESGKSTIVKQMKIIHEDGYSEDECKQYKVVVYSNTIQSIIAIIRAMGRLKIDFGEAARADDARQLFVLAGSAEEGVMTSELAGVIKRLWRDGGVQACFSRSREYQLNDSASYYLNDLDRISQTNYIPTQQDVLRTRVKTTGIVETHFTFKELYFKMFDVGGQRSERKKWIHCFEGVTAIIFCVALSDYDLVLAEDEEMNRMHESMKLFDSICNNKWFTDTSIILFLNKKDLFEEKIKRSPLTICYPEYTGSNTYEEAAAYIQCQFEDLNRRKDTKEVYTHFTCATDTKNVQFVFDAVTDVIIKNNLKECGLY
Sa growth inh – S. aureus growth inhibition at 42 and 30 °C, primary screen, LtaS inhibitor project, RN4220, two temperatures; relative growth, % (concentration not given with the values); OD600, 20 h, 42 °C; hits give low values; actives 0.53% (n = 170,000);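 active = growth at 42 °C up to 50% and 20 or more points under that at 30 °C, or under 10% at both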;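 note: 300 nL library stock went into each well; scaled to the means of positive and negative controls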
HCMV UL50-53 inh – inhibitors of HCMV UL50-UL53 interaction, biochemical, HTRF. HCMV UL50-UL53 nuclear egress complex (human cytomegalovirus). normalized percent inhibition. inhibition, % (no concentration beside the values). actives 0.15% (n = 190,000). AID 1918969, 2023;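 active = both replicates at 50% or more, plus weaker picks with an unusually low signal ratio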;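 note: stock transfer was 100 nL into about 20 µL; 0% = negative control wells and 100% = wells with untagged competitor protein; inactives centre near -12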
Sa growth inh second temp – recorded beside Sa growth inh, whose call it bears; relative growth, %; measured here: growth at 30 °C;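 optical density after 20 h as mean of two plates; 100% = untreated growth and lower means inhibition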
The depositor's hits bear a star; / = not tested or not shown; & = joins results of further samples.

mol,GIV-Gai inh,Sa growth inh,Sa growth inh second temp,HCMV UL50-53 inh
Cc1cc2c(cc1C)NC(CC(=O)Nc1cccc(Cl)c1)C(=O)N2 (stereo not given),116,105,93,-62
CCN(CC(=O)NCc1cccs1)C(=O)c1cccc(F)c1,/,81,92,-12
Cc1ccc(-c2c(C(F)(F)F)nn3c(NCc4ccccn4)cc(C)nc23)cc1,93,/,/,-4
FC(F)Oc1ccccc1NC(=S)Nc1cccnc1,/,105,93,13
O=C(CSc1nnc(-c2ccccc2)o1)N1c2ccccc2CCc2ccccc21,102&102,106,88,-10
CC(C)(C)NS(=O)(=O)c1ccc2c(c1)CCN2C(=O)NC1CCCC1,98,/,/,-30
Cc1ccc(Cl)cc1N1CCN(C(=O)c2cccn2-c2nnc(N3CCCCC3)s2)CC1,100,92,86,/
Cc1cn2c(=O)cc(COC(=O)c3ccc(NC(=O)c4ccccc4C)cc3)nc2s1,101,70,80,/
CCOC(=O)Nc1ccc(Br)cn1,101,92,102,14
CCCC(=O)Nc1ccccc1OC(F)(F)F,/,88,89,1
COc1ccc(-c2cc3ncc(C)n3c(Nc3ncccc3C(N)=O)n2)cc1OC,101,/,/,-22
COc1ccc(S(=O)(=O)n2nnc3ccccc32)cc1C(C)(C)C,111,106,90,-3
CCSc1nc(C)cc(=O)[nH]1,99,89,87,-12
CCCN(CCC)C(=O)C1=C(C)C(=O)OC12CCCCC2,100,83,83,/
COc1cccc(C(=O)N2c3ccc(C)cc3C(C)(c3ccccc3)CC2(C)C)c1 (stereo not given),104,90,89,-75
COc1cccc(/C(C#N)=C/O)c1,103,106,76,-4
COc1ccc(-c2nc(COc3ccccc3-c3nnc(-c4ccccc4)o3)c(C)o2)c(OC)c1,104,/,/,-32
Cc1ccc(NC(=O)N2CCN(Cc3nc4ccc(C)cc4o3)CC2)cc1,103,99,97,/
CS(=O)(=O)c1sc(C(=O)O)c2c1C=CCC2,105,98,93,18
O=C(CSc1nc2ncccc2o1)Nc1cccc(C(F)(F)F)c1,102,82,91,/
Cc1ccc(S(=O)(=O)c2[nH]c(-c3ccccc3)nc2SCC(N)=O)cc1,102,106,79,-28
COc1ccccc1CNC(=O)CCCCn1c(=O)c2ccccc2n(CC(=O)Nc2cc(Cl)ccc2C)c1=O,100,109,94,-3
Cc1cc(/C=C(\C#N)C(=O)NCc2cccs2)c(C)[nH]1,95,86,88,-42
c1cc2c(cc1CNc1ccc(N3CCCC3)cc1)OCO2,100,94,77,-24
CCN(CC(=O)N1N=C(c2ccccc2)CC1c1ccc(OC)cc1)Cc1nc2ccccc2c(=O)[nH]1 (stereo not given),/,123,85,-10
O=C(CCn1c(=O)c2cccn2c2ccc(F)cc21)NCc1ccccc1F,101,101,81,-1
CCOc1ccc(N(Cc2nc3nc(C)cc(C)n3n2)C(=O)C2CCCCC2)cc1,97,/,/,-14
CCOC(=O)c1c(C)n(-c2ccc(C)cc2)c2ccc(OCC(O)CN3CCC(C)CC3)cc12 (stereo not given),101,/,/,-4
CCOC(=O)c1c(/N=C/c2c(O)n(C)c3ccccc23)sc2c1CCC2,111,111,96,/
Cc1ccc2[nH]c(=O)c(-c3noc(CCCC(=O)Nc4nccs4)n3)cc2c1,104,/,/,-7

Given field by field: 4 of the compounds above.
> CCN(CC(=O)NCc1cccs1)C(=O)c1cccc(F)c1
  GIV-Gai inh: / | Sa growth inh: 81 | Sa growth inh second temp: 92 | HCMV UL50-53 inh: -12
> Cc1ccc(-c2c(C(F)(F)F)nn3c(NCc4ccccn4)cc(C)nc23)cc1
  GIV-Gai inh: 93 | Sa growth inh: / | Sa growth inh second temp: / | HCMV UL50-53 inh: -4
> FC(F)Oc1ccccc1NC(=S)Nc1cccnc1
  GIV-Gai inh: / | Sa growth inh: 105 | Sa growth inh second temp: 93 | HCMV UL50-53 inh: 13
> O=C(CSc1nnc(-c2ccccc2)o1)N1c2ccccc2CCc2ccccc21
  GIV-Gai inh: 102&102 | Sa growth inh: 106 | Sa growth inh second temp: 88 | HCMV UL50-53 inh: -10

Next records follow.
mol,GIV-Gai inh,Sa growth inh,Sa growth inh second temp,HCMV UL50-53 inh
COc1ccc(C2C(C#N)=C(N)Oc3n[nH]c(C)c32)cc1COc1ccccc1[N+](=O)[O-] (stereo not given),102,/,/,-34
COc1cccc(CNC(=O)CCS(=O)(=O)c2ccc3c(c2)oc(=O)n3C)c1,104,94,91,/
Cc1ccc(N(CC(=O)Nc2ccccc2C(=O)NCc2ccco2)S(C)(=O)=O)cc1Cl,/,127,103,9
O=C(/C=C/c1cn(-c2ccccc2)nc1-c1ccc(F)cc1)NCc1cccnc1,/,87,82,-26
N#Cc1cccc(NC(=S)NC2CC2)c1,/,83,85,-26
N#CCc1ccc(OC(F)F)cc1,/,94,90,-2
C=CCn1c(C(C)C)nc2ccccc21,102,78,90,/
O=C(Nc1ccccc1Cl)c1cn2ccccc2n1,/,125,89,-2
CNCCOc1ccccc1,105,83,82,20
COC(=O)C1CCN(C(=O)COC(=O)Cc2coc3cc(C)ccc23)CC1,/,114,93,6
O=S(=O)(Nc1ccc(-c2ccc(N3CCCC3)nn2)cc1)c1cc(F)ccc1F,103,91,87,/
CSc1ccc(CNC(=O)CCn2ccc3cc(S(=O)(=O)N4CCCC4)ccc32)cc1,98,115,87,/
CCOC(=O)C1CCN(CC(=O)Nc2cc(C)c3c(=O)oc4ccccc4c3n2)CC1,111,90,91,-4
CC1=C(C(=O)Nc2ccccc2)C(c2ccc3c(c2)OCO3)n2nnnc2N1 (stereo not given),110,/,/,4
Cc1cc(C)c2nc(N3CCCC(C(=O)NCc4ccccc4F)C3)sc2c1 (stereo not given),104,124,88,-26
CCC(C)N[C@H]1CS(=O)(=O)C[C@@H]1S(=O)(=O)c1ccc(F)cc1 (stereo not given in full),104,/,/,-22
O=C(CN1CCN(c2ccccc2F)CC1)C12CC3CC(CC(C3)C1)C2,/,107,107,-13
CCC1CCCCN1C(=O)c1cc(-c2ccc(Cl)cc2)on1 (stereo not given),107,109,91,1
Cc1ccc(CNC(=O)C2CCCN(S(=O)(=O)c3c(C)n[nH]c3C)C2)cc1 (stereo not given),104,95,99,-10
CNC(=O)c1cc2sc(Cl)cc2n1C,107,100,76,/
CCOc1ccc2nc(NC3=NCCC(=O)N3)nc(C)c2c1,106,92,90,-40
COc1ccc(-c2nsc(NC(=O)c3oc4cc(C)c(C)cc4c3C)n2)cc1,99,98,99,2
NNc1nc(-c2ccccc2)cc(-c2ccccc2O)n1,103,75,84,/
Cc1ccc(C(=O)O)o1,/,88,93,2
CCn1c(C(C)Oc2ccc(Cl)cc2)n[nH]c1=S (stereo not given),107,107,100,7
C/C(NCc1ccncc1)=C(\C#N)C(N)=O,103,/,/,1
C=CCNC(=S)Nc1ccccc1,108,94,85,-7
O=C(NCc1ccccc1)C1CCN(C(=O)c2ccccc2)CC1,102,109,92,/
COc1ccc(N2CCN(C(=O)NCc3noc4ccccc34)CC2)cc1,105,86,89,/
COc1cccc(NC(=O)c2ccc(-n3nnc4cccnc43)cc2)c1,119,/,/,-15

New compounds follow.
Order of values – GIV-Gai inh	Sa growth inh	Sa growth inh second temp	HCMV UL50-53 inh
Cc1nc2scc(C)n2c(=O)c1S(=O)(=O)Nc1cccc(C(F)(F)F)c1
    99	103	89	2
N#Cc1ccccc1NC(=O)CCCc1ccccc1
    110	119	91	0
CNC(=O)COc1coc(CN2CCc3ccccc32)cc1=O
    104	87	92	-18
Cc1cc(C)cc(NC(=O)Cn2c(=O)n(-c3cc(C)cc(C)c3)c(=O)c3oc4ccccc4c32)c1
    102	84	86	/
COC(=O)C1=C(C)NC(C)=C(C(=O)OC)C1C(=O)OCc1cccc(S(=O)(=O)N(C)C)c1
    /	80	90	-29
Cn1c(S(C)(=O)=O)nc2ccccc21
    97	111	86	-20
O=C1CCCC/C1=C/NC1CCCCC1
    /	125	76	-34
CC1CC(C)CN(C(=O)COC(=O)Cc2cn3ccsc3n2)C1 (stereo not given)
    /	94	98	-15
CC(C)(C)N1COc2ccc3c(-c4ccccc4)cc(=O)oc3c2C1
    99	86	90	-86
CCOc1cccc(N2C(=O)/C(=C\c3ccc(N(CC)CC)cc3OC)C(=O)NC2=S)c1
    222	/	/	-14

Reprinted at random: 2 records from the list
Order of values – GIV-Gai inh	Sa growth inh	Sa growth inh second temp	HCMV UL50-53 inh
CCOC(=O)C1CCN(CC(=O)Nc2cc(C)c3c(=O)oc4ccccc4c3n2)CC1
    111	90	91	-4
CS(=O)(=O)c1sc(C(=O)O)c2c1C=CCC2
    105	98	93	18

(list continues)
Order of values – GIV-Gai inh	Sa growth inh	Sa growth inh second temp	HCMV UL50-53 inh
COc1cc2[nH]c(=O)n(CCCCCC(=O)NC3CCCC3)c(=O)c2cc1OC
    100	74	84	-22
COc1cc(SC)ccc1C(=O)Nc1nnc(C(F)(F)F)s1
    /	98	80	31
CCC1CCCCN1C(=O)Cn1c(=O)n(C2CCCC2)c(=O)c2ccccc21 (stereo not given)
    101	90	84	/
CCOC(=O)c1cc(NC(=O)c2ccoc2C)cc(C(=O)OCC)c1
    108	117	101	20
CCCN1CCN(C(=O)c2sc3nc4n(c(=O)c3c2C)CCCC4)CC1
    106	87	87	/
O=C1CCCc2cc(S(=O)(=O)NCC3CCN(CCc4cccs4)CC3)ccc2N1
    107	82	85	-38
CN1C(=O)/C(=C/c2cccs2)SC1=S
    103	77	88	-10
Cc1ccc(C)c2[nH]c(=O)c(CCNC(=O)C(C)(C)Oc3ccc(Cl)cc3)cc12
    96	107	91	/
CC(C)c1ccc2oc(-c3ccc(N)cc3)nc2c1
    /	120	86	7
COC(=O)C(F)C(=O)OC
    /	90	93	-1
O=C(Cn1c(=O)ccc2cc(S(=O)(=O)N3CCCC3)ccc21)NCc1ccc(Cl)cc1
    102	106	81	/
COc1ccccc1NC(=O)CN1CCCN(S(=O)(=O)c2ccc(Br)cc2)CC1
    102	89	77	0
COc1cc2[nH]c(=O)n(CCCCC(=O)N3CCN(c4ccccn4)CC3)c(=O)c2cc1OC
    103	/	/	-19
CCOC(=O)CN1c2ccccc2NC(=O)CC1C (stereo not given)
    98	95	89	-2
Cc1cccc(C)c1NC(=O)NCCc1c[nH]c2ccccc12
    98&99	107	89	-5&-4
COc1ccc2c(c1)C(C)CC(C)[N+]2(C)C (stereo not given)
    /	101	83	-29
CC(C)NC(=O)Cn1c2ccccc2c2cn[nH]c(=O)c21
    108	102	91	/
O=C1OCC2=C1C(c1ccc3c(c1)OCO3)Sc1ccccc1N2 (stereo not given)
    103	103	80	-18
CC(C(=O)N1c2ccccc2CC1C)N(C)CCOc1ccc(Cl)cc1 (stereo not given)
    /	105	91	-3
O=C(CC1C(=O)OCCN1Cc1ccccc1)Nc1cccc(C(F)(F)F)c1 (stereo not given)
    100	79	86	13
O=S(=O)(c1ccc2ccccc2c1)N1CCCCCC1
    106	109	57	-13
CCc1nc(C)ccc1OCC(=O)O
    101	112	105	/
COc1cccc(NC(=O)CSc2nc(-c3ccccc3)nc3c2Cc2cc(Cl)ccc2O3)c1
    105	111	87	-34
Cc1ccc(C(=O)n2nc(C)c(Sc3nccn3C)c2C)cc1
    103	114	91	3
CCn1cc(C(=O)OCC(=O)N2C(C)CCCC2C)c(=O)c2cc(F)c(N3CCN(C(C)=O)CC3)cc21 (stereo not given)
    /	91	83	-30
Cc1ccc(CNC(=O)CS(=O)(=O)Cc2nc(-c3ccccc3C)oc2C)cc1
    103	97	100	7
CN(C(=O)c1cc2c(s1)-c1ccccc1S(=O)(=O)C2)c1ccc(F)cc1
    103	/	/	-36
Oc1ccccc1OCC(O)c1ccccc1 (stereo not given)
    /	92	73	-17
O=S(=O)(c1cccc2nsnc12)N1CC(OCc2cccc(F)c2)C1
    98	/	/	-109
COCCNC(=O)c1c[nH]c2ccc(S(=O)(=O)N3CCc4ccccc43)cc2c1=O
    102	96	73	-14
COc1ccc(C2CC(=O)Nc3ccccc3S2(=O)=O)cc1OC (stereo not given)
    101	93	84	-30
CN1C(=O)c2cc(C(=O)NCc3cccc(Cl)c3)nn2CC1(C)C(=O)NC1CCCC1 (stereo not given)
    104	/	/	-6
COc1ccc(-n2nnc3c(=O)[nH]cnc32)cc1
    100	/	/	-35
O=C(NCCc1ccccc1)[C@@H]1CCCN1C(=O)c1cccs1
    /	93	93	-25
O=C1CC(N2CCN(S(=O)(=O)c3cccc(C(F)(F)F)c3)CC2)C(=O)N1Cc1ccccc1 (stereo not given)
    /	97	93	-6
CCN(CC)S(=O)(=O)c1ccc(/C=C/C(=O)NC2CCCCC2)cc1
    /	92	97	-4
CCS(=O)(=O)N1CCN(c2cc(-c3ccc(F)cc3)ncn2)CC1
    101	/	/	-9
Cc1cccc(NC(=O)C(O)C(O)C(=O)Nc2cccc(C)c2)c1 (stereo not given)
    106	104	93	-3
